Screening data deposited in PubChem by National Center for Advancing Translational Sciences (NCATS).
Sfp PPTase inh: Sfp phosphopantetheinyl transferase inhibition | Q9F4F7 | Biochemical Sfp PPTase activity, qHTS | Potency, µM, without a hit: max response, negative = inhibition, usual class: inhibitors | actives 3.5% (n = 310,000) | AID 1490; active means well fitted inhibition curve with a large enough effect; inconclusive means small, poorly fitted or top-dose-only effect, or another doubt; inactive means no such curve, though single readings can be large or run the other way;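 further: the enzyme is Sfp with the accession as filed and its product quenches rhodamine fluorescence; potency means the concentration at half of the fitted maximal effect; 0% = enzyme reaction without inhibitor and -100% = no enzyme wells; top concentration of the series not given in the record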
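After 15 min at room temperature with compound, 15 nM Sfp received 5 uM rhodamine-CoA plus 12.5 uM BHQ-2-ybbR (50 mM Hepes pH 7.6, 10 mM MgCl2). Rate came from the fluorescence difference over 30 min, ex 525/em 598 nm.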
gsp ag: activates gsp, the McCune-Albright syndrome mutation | AID 624287 | Potency, µM (doses to about 76.9 µM), for inactives: at the highest dose activation (cAMP increase), hits mostly activators | actives 0.13% (n = 340,000) | gsp mutant cells, cAMP HTRF, 30 min; control for the full effect not named in the record; active = well fitted activation curve with a large enough effect; inconclusive = small, poorly fitted or top-dose-only effect, or another doubt; inactive = no such curve, though single readings can be large or run the other way; cell line not stated here;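 further: phosphodiesterase inhibitor Ro 20-1724 added with compounds to block cAMP breakdown; potency means the concentration at half of the fitted maximal effect; nearly all actives have a fitted effect of over 60% in size; about a fifth of the inactives were tested at one dose only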
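Cells stably selected in G418 were plated at 2000/well, grown 16-24 hr, then given compounds in DMSO with the PDE inhibitor […] (300 uM solution added) for 30 min at 37C; cAMP was read by HTRF.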
gsp antagonist: gsp mutant antagonism; gsp-mutant cells, cAMP HTRF, 30 min; control for the full effect not named in the record; Potency, µM (titrated, usually from 76.9 µM), inactives show top-dose activity change, negative = inhibition, hits mostly inhibitors; actives 0.4% (n = 340,000); active = falling curve of any shape with a large fitted effect; inconclusive = falling curve, mostly with a smaller effect; inactive = flat or rising curve; cell line not stated here;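 further: intracellular cAMP measured with PDE inhibitor Ro 20-1724 present during compound exposure; potency means the concentration at half of the fitted maximal effect; on the % scale 0 is the no-effect control and ±100 the full control effect; nearly all actives have a fitted effect of over 65% in size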
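Cells in G418 medium, seeded 16-24 h, 37C; buffer exchange to DPBS + 1 mM CaCl2, 0.5 mM MgCl2, 0.05% BSA; cpds in DMSO + […] (300 uM stock), 30 min 37C; HTRF cAMP detection.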
ClpP mod: qHTS Assay for Activators of ClpP; ATP-dependent Clp protease proteolytic subunit (Bacillus subtilis (strain 168)), P80244; purified B. subtilis ClpP, FRET peptide cleavage, 20 min; Potency, µM (titrated, usually from 57.5 µM), inactives show top-dose activity change, negative = active; actives 1.9% (n = 340,000); active = well fitted falling curve with a large enough effect; inconclusive = small, poorly fitted or top-dose-only effect; inactive = no such curve, though single readings can be large or run the other way; further: potency means the concentration at half of the fitted maximal effect; the source files actives as falling curves though it sought activators and does not explain the sign; nearly all actives have a fitted effect of over 65% in size; many hits overshoot -100%
Target sequence (P80244 whole entry, looked up): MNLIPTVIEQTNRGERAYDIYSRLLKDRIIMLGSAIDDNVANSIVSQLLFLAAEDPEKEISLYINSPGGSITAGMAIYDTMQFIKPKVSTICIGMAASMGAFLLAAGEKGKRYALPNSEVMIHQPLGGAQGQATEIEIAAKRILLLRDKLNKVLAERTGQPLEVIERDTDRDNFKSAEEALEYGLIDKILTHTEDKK
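Purified B. subtilis ClpP, 10 microg/mL final in Tris/HCl pH8 with KCl, BSA, glycerol and Tween-20, cleaved an Abz/nitrotyrosine-quenched decapeptide. Fluorescence (ex 320, em 430) was read at 0 and 20 min at room temperature. Delta was normalized to 5.8 microM ADEP and DMSO/no-enzyme controls.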
Menin MLL FP FL: menin-MLL binding inhibition, fluorescein peptide. Fluorescence polarization, fluorescein-MLL peptide displacement from menin. FP activity change, % at 61.4 µM. 290,000 tested, under 10 active. AID 1766; inconclusive = falling polarisation curve, or a change in total fluorescence; inactive = total fluorescence flat and polarisation flat or rising; no compound was filed as active; the % refers to the polarisation; negative = inhibition;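 further: % of control where 0% means no effect; inhibitors lower the polarisation; unlabelled MLL peptide was the positive control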
TRPV1 potentiator: human TRPV1 potentiation | potentiation, % at 8.33 µM | actives 0.02% (n = 320,000) | Q8NER1 | TRPV1-expressing cells, Fluo-8 calcium influx, capsaicin EC20 potentiation; host cell line not named in the record; control for the full effect not named in the record; active means potentiation above 80%; inconclusive means 30% to 80%; inactive means below 30%; further: 0% is about no effect
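Cells expressing TRPV1 were dye-loaded with Fluo-8 and read kinetically: 10 s baseline, 3 min after compound (agonist portion), then 2 min after EC20 capsaicin (allosteric enhancer portion). Calcium-bound dye fluorescence at 480/520 nm.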
D2 potentiator: potentiates the human D2 dopamine receptor allosterically. P14416. DiscoveRx D2 beta-arrestin cells, luminescence, 90 min; 100% = 57 uM dopamine signal. potentiation, % (no concentration beside the values). actives 0.23% (n = 360,000). AID 624464; active = potentiation of 50% or more; inconclusive = 30% to 50%; inactive = 30% or less;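 further: compound concentration not given in the record; tested on top of an EC20 dose of dopamine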
Target sequence (P14416 whole entry, looked up): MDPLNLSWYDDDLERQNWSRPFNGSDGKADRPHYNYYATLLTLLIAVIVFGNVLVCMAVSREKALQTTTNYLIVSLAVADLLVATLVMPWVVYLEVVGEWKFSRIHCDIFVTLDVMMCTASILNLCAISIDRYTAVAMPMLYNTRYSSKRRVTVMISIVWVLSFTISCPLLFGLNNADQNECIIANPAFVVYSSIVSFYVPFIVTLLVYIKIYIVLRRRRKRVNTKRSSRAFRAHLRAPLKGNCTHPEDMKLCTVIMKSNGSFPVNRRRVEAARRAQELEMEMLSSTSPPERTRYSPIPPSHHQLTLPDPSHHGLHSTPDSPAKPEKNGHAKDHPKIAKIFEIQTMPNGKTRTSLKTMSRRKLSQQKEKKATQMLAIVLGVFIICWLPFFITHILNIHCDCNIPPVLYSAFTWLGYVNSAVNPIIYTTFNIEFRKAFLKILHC
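PathHunter beta-arrestin assay in DiscoveRx D2 cells. Compounds were added with an EC20 of dopamine (50 nM final) for 90 min at 37 deg C. Luminescence was read 1 h after detection reagent, with 57 uM dopamine as the EC100 control.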
* hit, by the source's call; u = inconclusive; x = not tested or not shown; & = joins results of further samples; [ ] = remark or other dose.

SMILES | Sfp PPTase inh | gsp ag | gsp antagonist | ClpP mod | Menin MLL FP FL | TRPV1 potentiator | D2 potentiator
NC(=S)NN=Cc1nccc2c(C(F)(F)C(F)(F)C(F)(F)F)cccc12 | x | -15% | x | 0.5% | x | x | -21
Cc1cc(C(=O)N2CCCC(Nc3ccc(C)c(C)c3)C2)nc(C)n1 (stereo not given) | x | 21% | x | 0.0% | x | x | -7
Cn1cc(C2=C(c3ccc(Cl)cc3Cl)C(=O)NC2=O)c2ccccc21 | 5%&21% | x | -9% | 1.9%&1.0% | u | -9 | -9
COc1cc(OC)c(OC)cc1CNC(=O)c1cc(S(=O)(=O)N2CCOCC2)ccc1F | x | 31% | -17% | 0.8% | x | 6 | -3
COc1ccc(CN2CSC(=S)N(Cc3ccccc3)C2)cc1 | 8% | 10% | 6% | -1.7% | -1.1 | -3 | -12
COc1cccc(CNc2nc3ccc(C)cc3n3cnnc23)c1 | 5% | -11% | 8% | -1.3% | 7.5 | -3 | -15
COc1ccc(Cl)cc1S(=O)(=O)N1CCCC1=O | 21% | 1%[15.4 µM] | -2% | x | 1.9 | 1 | -9
Cn1cc(C=O)c2ccccc21 | 6% | -4% | 5% | -0.7% | 3.7 | -5 | -3
Cc1ccccc1S(=O)(=O)Nc1cccnc1 | 15% | -12% | 13% | 0.1% | 3.9 | -4 | -7
Cc1[nH]c2ccccc2c1C(=O)C(C)OC(=O)c1ccc([N+](=O)[O-])o1 (stereo not given) | 6% | 3%[15.4 µM] | 0% | x | -0.6 | -6 | 27
Cc1cccc(N2CCN(C(=O)c3cc4c(=O)n(C)c5ccccc5c4n3C)CC2)c1C | 6% | 13% | 14% | -4.9% | 1.2 | -2 | -1
O=C(COC(=O)CCC(=O)c1ccc(Cl)cc1)NCCc1ccccc1 | -22% | -32%[inhibitor] | -1% | -1.8% | -2.8 | -8 | -3
Cc1cc(=O)oc2c(CN3CCCCC3)c(O)c(Cl)cc12 | 9% | u | 6% | -24% | 1.6 | -29 | -5
c1ccc(Cn2c(NCc3ccccn3)nc3ccccc32)cc1 | 9% | u | -2% | 0.2% | -0.4 | 4 | -22
O=C(NCc1ccc(N2CCCC2=O)cc1)c1cnccn1 | 17% | u | -11% | 1.0% | 0.7 | 8 | 4
CSc1nc(Oc2ccc3ccccc3c2)c2sccc2n1 | -25% | 4% | -7% | -1.5% | -1.8 | 13 | 8
O=C(CSc1cccc[n+]1[O-])c1ccccc1Br | 9% | -2%[15.4 µM] | x | x | 0.4 | 2 | -13
O=C(NCC(c1ccco1)N1CCCCC1)c1cccs1 (stereo not given) | x | 1% | 1% | -4.7% | x | x | -15
CC(=O)Nc1ccc(NC(=O)CSc2ccc(-c3ccc(-n4ccnc4)cc3)nn2)cc1 | x | -2%[15.4 µM] | 11% | x | x | -8 | -3
NNC(=O)c1cc(Cl)ccc1Cl | 15% | 2% | 21% | -0.6% | 3.5 | -40 | -14
COc1ccc(CNC(=O)C/C(C)=N/NC(=O)c2cnccn2)cc1 | u | -28% | 5% | x | 1.2 | -10 | -1
COCCCNC(=O)c1ccccc1NS(C)(=O)=O | -4% | -30% | 1% | 28µM* | -7.5 | -16 | 6
Cc1ccccc1OCC(=O)Nc1ccc2oc(=O)ccc2c1 | 9% | -5%[15.4 µM] | -4% | -0.8% | -0.7 | -22 | 0
CC[n+]1c(S(=O)(=O)[O-])ccc2ccc(C)cc21 | 17% | 0%[15.4 µM] | 4% | -26% | 0.9 | -4 | -14
COc1ccc(C(=O)CSc2nnc(COc3ccc(C#N)cc3)n2-c2ccccc2)cc1 | -8% | 6% | 10% | 3.0% | -2.3 | 7 | -3
CC1CCC2(CC1)NC(=O)N(NC(=O)c1cc3ccccc3o1)C2=O (stereo not given) | x | 0% | 12% | 0.1% | x | -2 | -3
COc1ccc(NC(=O)C2CCN(S(=O)(=O)c3ccc(Br)s3)CC2)cc1OC | 6% | 3%[15.4 µM] | -27% | -0.4% | -1.1 | 6 | -4
CCOC(=O)c1c(C)[nH]c(C)c1C(=O)CSc1nc2ccccc2n1CCC#N | -4% | -40%[inhibitor] | 22% | -4.4% | 9.6 | 3 | -7
O=C(COC(=O)c1ccc2c(c1Cl)C(=O)c1ccccc1C2=O)NC1CC1 | 9% | 7% | -10% | -0.1% | 3.6 | -14 | 13
COc1ccc(-c2cc3c(=O)n(CC(=O)Nc4ccc(C(C)=O)cc4)ncn3n2)cc1 | 9% | -19% | 7% | -4.8% | x | -14 | -9
O=C(Nc1cccc(C(F)(F)F)c1)c1ccc(N2CCNCC2)c([N+](=O)[O-])c1 | 7% | 5%[15.4 µM] | 4% | x | 3.4 | -5 | -7
CC(C)[C@H]1CN=C2N(CCNC(=O)CCC3CCCCC3)[C@H](Cc3ccc(O)cc3)CN21 | 13% | 18% | 9% | 0.3% | 2.5 | 17 | -29
CC1CCN(C(=O)c2ccc(NC3=C(Cl)C(=O)N(Cc4ccccc4)C3=O)cc2)CC1 | x | -7% | u | -2.8% | x | 5 | -47
COc1ccc(C(=O)N/N=C/c2ccccn2)cc1 | x | -23% | x | -1.7% | x | x | -22
COCCn1c(SCc2cc(=O)n3cc(C)ccc3n2)nc2ccccc2c1=O | 21% | x | x | x | -1.8 | -26 | x
NNC(=O)CSc1nc(-c2ccccc2)nc2c1CCCC2 | 6% | 12% | -6% | x | 2.1 | 7 | -2
COCCNC(=O)C1CCCN(c2nn3c(=O)cc(C)nc3s2)C1 (stereo not given) | -2% | u | 4% | -4.5% | 1.1 | -1 | -8
CCOC(=O)c1c(NC(=O)CSc2nnnn2-c2ccccc2)sc2c1CC(C)(C)NC2(C)C | -11% | -31% | -10% | -1.7% | 6.5 | -22 | -19
Cc1nc(SCC(=O)Nc2ccc(N3CCOCC3)cc2)nc(C)c1C | u | 17% | -1% | -1.5% | 3.3 | -1 | -18
CCn1c(SCCC(=O)O)nnc1-c1cccnc1 | 15% | -9% | -6% | 0.1% | 4.2 | 9 | -13
Cc1ccc(-c2c(C)c(-c3ccc(F)cc3)nc(N)c2C#N)o1 | 18µM* | 25% | -2% | -16% | 14 | 21 | -7
S=c1[nH]nc(-c2cc(-c3ccccc3)n[nH]2)n1/N=C/c1cccc(Cl)c1 | u | -12%[15.4 µM] | u | x | 3.3 | x | -13
COC(=O)[C@@]1(Cc2ccc(OC)cc2)[C@@H]2C(=CC(=O)[C@H]2CC(=O)C(=O)N(C)C)CN1C(=O)c1ccccc1 | -1%&6% | -43%[inhibitor] | -3% | 0.6% | 12&5.1 | 7 | 1
CCCCNC(=O)NCCN1CCOCC1 | 14% | 21% | 11% | x | 6.6 | -4 | 0
Cc1ccc(OCC(O)CN2C(=O)NC(C)(C)C2=O)cc1 (stereo not given) | 15% | 12% | -11% | -12% | 0.9 | 5 | -2
N#CCC(CNc1ncc(C(F)(F)F)cc1Cl)OC(=O)c1ccc(Cl)cc1 (stereo not given) | 26% | 14% | -5% | -1.2% | 0.0 | -12 | -11
Cc1cccc(C(=O)OCC(=O)NN2C(=O)NC3(CCCCC3)C2=O)c1 | x | 42% | 22% | 0.4% | x | -1 | -1
Cc1cccc(N(Cc2cc(=O)[nH]c3ccccc23)C(=O)C(C)C)c1 | 23% | 21% | 5% | -13% | 2.1 | -2 | -9
CCn1c(-c2cccc(Cl)c2)n[nH]c1=S | 1% | u | 5% | -14% | -1.7 | 1 | -18
CCCCCOc1ccc(/C=C/C(=O)NCCc2nc3ccccc3[nH]2)cc1OC | 15% | -45% | u | 3.6% | 9.3 | -13 | -2
CC(=O)Oc1ccc2c(c1)c(C(C)=O)c(C)n2C | 0% | 18% | 7% | -0.6% | 2.3 | 1 | 4
Cc1cc([N+](=O)[O-])c2ccccc2c1NS(=O)(=O)c1ccccc1 | x | -40% | 2% | x | x | x | -7
Cc1nn(-c2ccccc2)c(C)c1/C=N/NC(=O)c1cc(-c2ccc(Cl)s2)[nH]n1 | 10% | 12% | -1% | u | 6.8 | 3 | 14
CC(=O)c1ccn(S(=O)(=O)c2ccc(Cl)cc2)c1 | 7% | -18% | -11% | 2.5% | 3.9 | -17 | -7
CC(=O)c1ccc(S(=O)(=O)Nc2ccc3c(c2)OCO3)cc1 | x | 11% | 6% | -3.3% | x | x | -8
CC(=O)c1c(C(C)=O)c(C)n(-c2ccc(C(=O)O)cc2)c1C | 18% | 32% | -4% | 1.1% | 0.7 | 3 | 8
CCC(=O)Nc1ccc2oc(-c3ccccc3Br)nc2c1 | 11% | 18% | -4% | u | -2.1 | 28 | -19
CC1CCCCN1Cc1nc2c(c(=O)n(C)c(=O)n2C)n1Cc1c(F)cccc1Cl (stereo not given) | -1% | -85%[inhibitor] | -5% | -1.2% | -4.5 | -4 | -5
CC1(NC(=O)Cc2csc(-c3ccc(Cl)cc3)n2)CCS(=O)(=O)C1 (stereo not given) | x | 15% | 2% | -23% | x | x | -1
Cc1ccc(Cn2ccc(NC(=O)c3cc4nc5c(c(C(F)(F)F)n4n3)CCc3ccccc3-5)n2)cc1 | 6% | x | x | x | 1.4 | 0 | x
Next compounds
SMILES | Sfp PPTase inh | gsp ag | gsp antagonist | ClpP mod | Menin MLL FP FL | TRPV1 potentiator | D2 potentiator
COc1ccc(Br)c(C(=O)OCc2cc(=O)oc3cc(C)ccc23)c1 | -15% | 15%[15.4 µM] | x | x | -2.9 | -10 | 0
O=C1CCC[C@@H]2[C@@H](Cc3ccccc3)[C@H](N3CCN(c4ccccc4)CC3)C[C@@H]3CCN1[C@@H]32 | x | x | -16% | 1.2% | x | x | -36
CC(NC(=O)COC(=O)c1ccccc1O)c1ccccc1 (stereo not given) | x | -80%[inhibitor] | x | -5.6% | x | x | -3
COc1ccc(-c2c3c(=O)n(C)c(=O)n(C)c3cn2Cc2ccccn2)cc1 | u | -29% | -2% | -5.4% | -1.0 | 24 | 6
